# From PubChem
# VDR inh – blocks the human vitamin D receptor; VDR-SRC2-3 peptide fluorescence polarization, 2 h; Potency, µM, without a hit: max response, negative = inhibition, usual class: inhibitors; 400,000 compounds, 0.93% hits; AID 504847; active = well fitted inhibition curve with a large enough effect; inconclusive = small, poorly fitted or top-dose-only effect, or another doubt; inactive = no such curve, though single readings can be large or run the other way; also: series mostly up to about 120 µM
# Target sequence (P11473 whole entry, looked up): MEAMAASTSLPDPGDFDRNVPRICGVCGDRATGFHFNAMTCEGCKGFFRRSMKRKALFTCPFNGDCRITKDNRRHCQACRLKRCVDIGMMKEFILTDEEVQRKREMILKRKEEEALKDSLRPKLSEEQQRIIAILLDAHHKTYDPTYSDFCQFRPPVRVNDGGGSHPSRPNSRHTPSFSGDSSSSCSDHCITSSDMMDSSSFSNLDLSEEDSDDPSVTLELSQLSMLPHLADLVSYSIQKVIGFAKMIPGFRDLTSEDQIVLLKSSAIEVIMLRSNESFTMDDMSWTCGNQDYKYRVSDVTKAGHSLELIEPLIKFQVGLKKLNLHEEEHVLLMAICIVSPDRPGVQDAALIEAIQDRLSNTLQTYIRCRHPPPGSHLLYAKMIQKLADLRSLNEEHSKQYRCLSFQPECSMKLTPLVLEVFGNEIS
#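 After 23 nl compound addition and a short centrifugation, plates sat for 2 hours at ambient temperature; polarization of fluorescence then indicated loss of VDR binding to peptide SRC2-3.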
# Numbers without * were called inactive; u = inconclusive. % is scaled to controls: 0 for no effect and ±100 for the full control effect; potency is read from the fitted curve at half-maximal effect. These rows are one share of the data (hit frequency here may not be typical).
SMILES,VDR inh
CN(Cc1ccccc1)C(=O)c1ccc(NC(=O)Cc2ccc(NC(=O)C3CCCN(C(=O)CCc4ccccc4)C3)cc2)cc1 (centres undefined),-6%
c1ccc2c(c1)CCN(c1nc(CN3CCOCC3)nc3sc4c(c13)CCCC4)C2,-19%
CCCN(CCC)CCCNC(=O)Cn1ncc2c3ccccc3n(Cc3ccccc3F)c2c1=O,6%
O=C(CN1C(=O)NC2(CCc3ccccc32)C1=O)NCc1ccc(Cl)cc1 (centres undefined),3%
COc1ccccc1CNC(=O)COC(=O)Cc1ccc(Br)cc1,-11%
CCCCNC(=O)CSc1nnc(C)c2c(C)n(-c3ccccc3)nc12,-5%
CCn1nc(C)c2c(-c3ccccc3)cc(=O)n(C(C)C(=O)NCCC(C)C)c21 (centres undefined),12%
CC(C)OC(=O)c1cc(-c2ccc(C=O)o2)ccc1Cl,-5%
C/C(=C1\SC(N2CCOCC2)=NC1=O)c1ccc(C)cc1,-1%
CCOC(=O)c1c(NC(=O)Cc2cccs2)sc(C(=O)N2CCCCC2)c1C,-17%
O=C(Nc1ccc(F)cc1)c1nc[nH]c1C(=O)Nc1ccccc1[N+](=O)[O-],u
O=c1oc(Nc2ccccc2F)nc2ccccc12,8%
NC(=O)c1ncn([C@@H]2O[C@H](CNCc3cccc(OC4CCCC4)c3)[C@@H](O)[C@H]2O)n1,-9%
O=C(c1cccc(F)c1)N1CCC2(CC1)CN(Cc1ccccc1)C2,-2%
COc1cc(C(CC(=O)NCc2ccccc2Cl)N2Cc3ccccc3C2=O)cc(OC)c1OC (centres undefined),-4%
COc1ccc(CCNc2nc(=O)[nH]nc2C)cc1OC,-5%
CCC(Sc1nc2sc(C(=O)OC)c(C)c2c(=O)n1N)C(=O)N(CC)CC (centres undefined),4%
COc1ccc([N+](=O)[O-])cc1NC(=O)COC(=O)c1ccccc1O,-2%
COc1ccc(C)cc1NC(=O)CC(O)(C(F)(F)F)C(F)(F)F,3%
CC(C(N)=O)N1C(=O)NC2(CCCc3ccccc32)C1=O (centres undefined),-6%

# Fetched one by one from the entries so far:
SMILES,VDR inh
COc1ccc(C)cc1NC(=O)CC(O)(C(F)(F)F)C(F)(F)F,3%
CC(C(N)=O)N1C(=O)NC2(CCCc3ccccc32)C1=O (centres undefined),-6%
CCn1nc(C)c2c(-c3ccccc3)cc(=O)n(C(C)C(=O)NCCC(C)C)c21 (centres undefined),12%
O=C(c1cccc(F)c1)N1CCC2(CC1)CN(Cc1ccccc1)C2,-2%

# An excerpt of these results, as labelled records:
CCOC(=O)c1c(NC(=O)Cc2cccs2)sc(C(=O)N2CCCCC2)c1C
- VDR inh = -17%
O=C(Nc1ccc(F)cc1)c1nc[nH]c1C(=O)Nc1ccccc1[N+](=O)[O-]
- VDR inh = u
O=c1oc(Nc2ccccc2F)nc2ccccc12
- VDR inh = 8%

# Single values from the entries so far:
# Under VDR inh, `COc1cc(C(CC(=O)NCc2ccccc2Cl)N2Cc3ccccc3C2=O)cc(OC)c1OC` (centres undefined) has -4%
# Under VDR inh, `NC(=O)c1ncn([C@@H]2O[C@H](CNCc3cccc(OC4CCCC4)c3)[C@@H](O)[C@H]2O)n1` has -9%

# Following part
SMILES,VDR inh
CC1CCN(CC(=O)N2CC(=O)Nc3ccccc32)CC1,2%
Cc1cccc(N(C)c2ncnc3onc(-c4ccc(F)cc4)c23)c1C,12%
CCN(C(=O)CCS(=O)(=O)c1cccc2nonc12)c1ccc(F)cc1,8%
Cc1cc(N2CCCC2)ccc1/C=N/n1cnnc1,4%
CCCc1nc2ccccc2c(=O)n1CC(=O)c1ccccc1,-6%
O=C(NCc1ccco1)c1scc2c1OCCO2,-4%
CC[C@@]1(c2ccccc2C)C(=O)N(C(=O)OC)N1C(=O)OC,u
O=C(CNC(=O)c1ccc(Cl)cc1)OCc1cc(=O)n2ccsc2n1,0%
CS(=O)(=O)N1CCc2cc(C(=O)Nc3ccc(S(N)(=O)=O)cc3)ccc21,6%
COc1ccc(C)cc1NC(=O)NNC(=O)c1cc2ccccc2cc1O,4%
N#Cc1nc(COc2ccccc2)oc1N1CCN(c2cccc(Cl)c2)CC1,10%
Cc1ccc(/C=N/NC(=O)c2ccc(-c3ccccc3)cc2)o1,-13%
c1ccc(CSc2nnc(-c3sccc3-n3cccc3)o2)cc1,-4%
O=c1[nH]c(-c2ccccc2)c(-c2ccccc2)[nH]1,-16%
Cc1nn(C)cc1CN1CCCC(C(=O)c2ccc(-c3ccccc3)cc2)C1 (centres undefined),1%
CCOC(=O)N1CCC(NC(=O)CS(=O)Cc2nc(-c3ccccc3C)oc2C)CC1 (centres undefined),-20%
O=C(Nc1ccccc1N1CCOCC1)C1CCCCN1S(=O)(=O)c1ccccc1 (centres undefined),10%
O=C(Nc1scc(-c2ccccc2)c1C(=O)O)c1ccco1,4%
CCN(CC(=O)Nc1c(F)cccc1F)C(=O)c1n[nH]c2ccccc12,-3%
CCN(CC)S(=O)(=O)c1ccc(OC)c(NC(=O)c2cccc([N+](=O)[O-])c2C)c1,-7%
O=C(CN1CCN(C(=O)C2CCN(C(=O)/C=C/c3ccccc3)CC2)CC1)Nc1ccccc1Cl,24%
CC[C@@]12C(=O)N(c3ccccc3)C(=O)N1[C@H](c1ccc(Br)cc1)[C@@H]1C(=O)N(C(C)(C)C)C(=O)[C@@H]12,-18%
CCC1(C)Cc2c(sc3c2c(=O)n(-c2ccccc2)c(=O)n3C)CO1 (centres undefined),7%
O=C(Nc1ccc(-c2csc(Nc3cccc(C(F)(F)F)c3)n2)cc1)c1cccc(C(F)(F)F)c1,2%
CCN(CC)c1nc(C)c(C(C)=O)cc1C#N,-4%
CCOC(=O)C1C(=O)C=C(c2ccccc2)CC1c1ccccc1 (centres undefined),-20%
CCCN(CC(=O)Nc1ccc(F)c(F)c1F)C(=O)c1cc(S(=O)(=O)N(C)C)ccc1N1CCCC1,-7%
Nc1ncnc(N2CCOCC2)n1,-11%
COc1cccc(NC(=O)c2csnn2)c1,-2%
COC(=O)c1ccc(COc2nc(C)cc(C)c2C#N)o1,-6%
COc1cc(C(=O)N/N=C/c2sc(=O)n(-c3ccccc3)c2Cl)cc(OC)c1OC,3%
COc1ccccc1/C=N/N(C(C)=O)c1nc(-c2ccc(F)cc2)cs1,1%
Cc1nc(C)c(C(=O)N(c2ccc(C)c(C)c2)C(C(=O)NCc2ccco2)c2ccccc2)s1 (centres undefined),-4%
CC(NC(=O)c1ccco1)C(=O)N1CC=C(c2ccccc2)CC1 (centres undefined),28%
COc1cc(C2Nc3ccccc3-c3nnc(SCc4ccc(Cl)cc4)nc3O2)ccc1OCC(=O)O (centres undefined),-21%
O=C(CCn1nc(-c2ccc(Cl)cc2)ccc1=O)NCCc1ccccc1,7%
CCCCC(CC(O)COCCC)c1n[nH]c(=S)n1-c1ccccc1 (centres undefined),26%
CS(=O)(=O)Nc1ccc(C2=NN(S(=O)(=O)c3ccccc3)C(c3cccs3)C2)cc1 (centres undefined),-15%
CC1CCN(c2ccc(C(=O)OCC(=O)NCCN3C(=O)CSC3=O)cc2[N+](=O)[O-])CC1,-7%
Cn1ccsc1=NC(=O)c1ccc(=O)[nH]c1,-8%
COc1cccc(C2=CC(=O)CCC2)c1,9%
CC(C)Oc1ccc(C(=O)Nc2c(C(=O)Nc3cccc(F)c3)oc3ccccc23)cc1,22%
COc1cc(CC(=O)OCC(=O)NC2CCCCCC2)cc(OC)c1OC,-6%
COc1ccc(C(=O)c2ccccc2)cc1,11%
S=C(NCc1ccc2c(c1)OCO2)NC1CCN(Cc2ccccc2)CC1,-14%
O=C(CSc1nnc(-c2cccnc2)o1)OC1CCCCC1,3%
O=C(Nc1cccnc1)c1cc(F)c(F)cc1Cl,8%
O=C1CCCN1S(=O)(=O)c1ccc(F)cc1,10%
Cc1ccccc1CNC(=O)CCc1ccccc1,-2%
O=C/C(=C\Nc1ccc(Br)cc1)c1nc2ccccc2o1,0%
Cc1ccc(S(=O)(=O)Oc2ccccc2/C=C2/SC(=O)NC2=O)cc1,-17%
O=C(CSc1nc2cc(Cl)ccc2o1)NC1CC1,3%
CCn1cc(Cl)c(C(=O)Nc2nc3ccccc3n2CCN2CCCCC2)n1,-26%
CC(NC(=O)C(C)N1CCN(Cc2ccccc2)CC1)c1ccc(F)cc1 (centres undefined),-3%
Cc1ccc(-n2ncc3c(NCc4cccnc4)ncnc32)c(C)c1,-12%
CC(=O)c1c(C(=O)O)c2ccccc2[nH]c1=O,-16%
CCn1c(SCC(=O)NC2CCCCC2)nnc1C(CO)NC(=O)c1ccccc1 (centres undefined),-18%
CCOC(=O)Nc1ccc2nc(N3CCCCCC3)sc2c1,7%
C/C(CC(=O)NCc1ccco1)=N\NC(=O)COc1ccc(Cl)cc1Cl,-3%
Cc1nc(Nc2ccc(C(=O)O)cc2)sc1-c1ccccc1,3%

# Next section:
SMILES,VDR inh
N#Cc1ccccc1NC(=O)COC(=O)c1c[nH]c2ccccc12,1%
Cc1ccc(C2C(C=Nc3c(C)n(C)n(-c4ccccc4)c3=O)=C(c3ccccc3)Oc3ccccc32)cc1 (centres undefined),-12%
Cc1nc(C(=O)Nc2cc(Cl)ccc2Cl)nn1-c1cc(OC(C)C)c(Cl)cc1Cl,5%
COc1ccc(N2CC(C(=O)OCC(=O)Nc3cccc(C)c3C)CC2=O)cc1 (centres undefined),-9%
COc1ccc(N(CC(=O)NC2CCCC2)C(=O)Cn2nnc(-c3ccc(C)o3)n2)c(OC)c1,3%
CCCCN(C(=O)C(C)N1C(=O)c2ccccc2C1=O)c1c(N)n(CC(C)C)c(=O)[nH]c1=O (centres undefined),0%
Cc1ccc(Cn2c(SCc3ccc(C(=O)O)cc3)nc3cccnc32)cc1,-6%
COc1cc(CC(=O)Oc2ccc3c(c2)OCO3)cc(OC)c1OC,1%
CCOC(=O)C1CN(S(=O)(=O)c2ccc(OC)cc2)c2ccccc2O1 (centres undefined),-6%
COc1cccc(-c2nn[nH]n2)c1O,2%
Cc1cc(C)c(NC(=O)Cn2c(SCC(=O)NCc3ccccc3)nc3ccccc32)c(C)c1,-1%
Cc1ccc(Nc2c(N)c(=O)oc3ccccc23)cc1,0%
CSCc1c(C(=O)OCC(=O)c2ccc[nH]2)oc2ccccc12,8%
Cc1ccc(-c2nnc(Nc3ccc(Br)cc3)c3ccccc23)cc1S(=O)(=O)N1CCCCC1,-14%
Cc1ccc(-c2cn3c(n2)sc2cc(C(=O)N4CCCCC4)ccc23)cc1,-5%
COc1ccc(Oc2nc3ccccc3nc2C(F)(F)F)cc1,3%
O=C(Nc1cccc(S(=O)(=O)N2CCOCC2)c1)c1cc([N+](=O)[O-])ccc1N1CCOCC1,-3%
O=C(NCCCN1CCN(c2ccccc2F)CC1)c1sc2ncccc2c1-n1cccc1,6%
O=C(Nc1cc2c(cc1Br)OCCCO2)c1cccnc1,-5%
O=c1[nH]c2cc([N+](=O)[O-])cc([N+](=O)[O-])c2[nH]c1=O,-2%

# 5 entries from above, set out differently.
Structure	VDR inh
Cc1ccc(Nc2c(N)c(=O)oc3ccccc23)cc1	0%
c1ccc(CSc2nnc(-c3sccc3-n3cccc3)o2)cc1	-4%
CCOC(=O)N1CCC(NC(=O)CS(=O)Cc2nc(-c3ccccc3C)oc2C)CC1 (centres undefined)	-20%
COc1ccc(N2CC(C(=O)OCC(=O)Nc3cccc(C)c3C)CC2=O)cc1 (centres undefined)	-9%
CCOC(=O)C1CN(S(=O)(=O)c2ccc(OC)cc2)c2ccccc2O1 (centres undefined)	-6%

# (cont.)
SMILES,VDR inh
CCOC(=O)c1c(C)[nH]c(C)c1S(=O)(=O)N1CCC(C(=O)N2CCN(c3cccc(C)c3C)CC2)CC1,12%
Cc1ccc(S(=O)(=O)N2CCC(=O)N(CCOC(=O)Nc3cccc(Cl)c3)CC2)cc1,-1%
CCC(C)(C(=O)Nc1ccc2c(c1)OCCO2)N(C(C)=O)c1ccc(C(N)=O)cc1 (centres undefined),10%
CC(=O)Nc1ccc2c(c1)C(C)(C)C(C)N2C (centres undefined),45µM*
CC(=O)c1c(C)[nH]c(C(=O)Nc2ccc(C)cc2Br)c1C,4%
CCOC(=O)N1CCN(c2c(NCCN3CCN(c4ccccc4F)CC3)c(=O)c2=O)CC1,5%
Cc1ccc(S(=O)(=O)N2CCOCC2)cc1NC(=O)CSc1nc(N)cc(=O)[nH]1,9%
Cc1ccccc1Cn1nc(C)c(NC(=O)/C=C/c2cnn(C)c2)c1C,-10%
OC(CNc1ccccc1)COc1ccc(OCC(O)CNc2ccccc2)cc1 (centres undefined),3%
COC(=O)c1sc(NC(=O)C2CCCO2)c(C(=O)OC)c1C (centres undefined),-7%
Cn1c(SCc2ccc(F)cc2)nc2ccc(C(=O)NCc3ccc(F)cc3)cc21,4%
Cc1ccc(NC(=O)C2CCCN(c3ncnc4c3nc3n4CCCCC3)C2)cc1Cl (centres undefined),2%
COc1ccc(/C=N/N=C2/NC(=O)C(CC(=O)NC(N)=O)S2)cc1 (centres undefined),19%
O=C(CSc1nnc(-c2ccccc2F)o1)Nc1cccc(C(F)(F)F)c1,-11%
COc1cc(C(=O)OC2CC3CCC2(C)C3(C)C)ccc1OC(C)=O (centres undefined),12%
CC(C)(C)c1cc(-c2nc(N)nc(N)n2)c(O)c(C(C)(C)C)c1,0%
COc1ccc(C)cc1NC(=O)c1c2c(nc3ccccc13)C(=O)N(C1CCCCC1)C2,1%
CC(C)N1CC(C(=O)Nc2ccc(Cl)c([N+](=O)[O-])c2)CC1=O (centres undefined),-21%
Cc1c(Cl)cccc1NS(=O)(=O)c1ccc(-c2ccc(=O)[nH]n2)o1,6%
Cc1ccc(S(=O)(=O)CCC(=O)OCc2cc(C)ccc2C)cc1,-3%
